GIV-Gai inh – inhibitors of GIV GBA-motif binding to rat Galpha-i3; actives 0.42% (n = 210,000); percent of control (FP), % (concentration not given with the values); P08753; Galpha-i3/FITC-GIV peptide fluorescence polarization, 90 min; stronger effect = lower value; scaled: aluminum fluoride 0%, vehicle 100%; AID 1224905;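 active = replicate mean at 85% of control or lower, very high polarization wells dropped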;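 note: wells of about 15 µL received 100 nL stock; the first replicate is given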
Target sequence (P08753 whole entry, looked up): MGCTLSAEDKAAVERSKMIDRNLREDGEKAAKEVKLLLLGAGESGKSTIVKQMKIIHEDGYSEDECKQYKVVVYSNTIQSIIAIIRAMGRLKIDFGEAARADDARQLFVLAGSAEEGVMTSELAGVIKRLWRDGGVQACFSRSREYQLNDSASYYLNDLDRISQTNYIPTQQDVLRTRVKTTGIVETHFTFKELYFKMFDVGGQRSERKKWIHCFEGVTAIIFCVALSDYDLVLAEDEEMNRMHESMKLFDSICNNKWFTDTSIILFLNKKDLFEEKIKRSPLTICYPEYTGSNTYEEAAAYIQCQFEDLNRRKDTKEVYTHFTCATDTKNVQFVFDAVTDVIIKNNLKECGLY
Sa growth inh – blocks Staphylococcus aureus growth; S. aureus RN4220 growth, OD600, 20 h, 42 °C; stronger effect = lower value; relative growth, % (test concentration not listed); AID 720641; actives 0.53% (n = 170,000);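 active = growth at 42 °C up to 50% and 20 or more points under that at 30 °C, or under 10% at both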;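 note: 300 nL library stock went into each well; scaled to the means of positive and negative controls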
HCMV NEC inh – cytomegalovirus nuclear egress complex inhibition; HTRF UL50-UL53 interaction, normalized percent inhibition; inhibition, % (test concentration not listed); actives 0.15% (n = 190,000); AID 1918969;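 active = both replicates at 50% or more, plus weaker picks with an unusually low signal ratio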;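 note: stock transfer was 100 nL into about 20 µL; 0% = negative control wells and 100% = wells with untagged competitor protein; inactives centre near -12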
Sa growth inh second temp – second read-out of Sa growth inh, no call of its own (marks repeat the call); relative growth, %; measured here: growth at 30 °C;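 optical density after 20 h as mean of two plates; 100% = untreated growth and lower means inhibition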
* = called active by the depositor; / = not tested or not shown.

Sample of the layout (three entries):
SMILES | GIV-Gai inh | Sa growth inh | Sa growth inh second temp | HCMV NEC inh
COc1cccc(N2CCN(c3ncnc4onc(-c5ccc(Cl)cc5)c34)CC2)c1 | 106 | 122 | 99 | /
CCc1nc2cccnc2n1-c1ccc(CC(=O)N2CCC3(CC2)OCCO3)cc1 | 105 | 103 | 88 | -31
Cc1ccc(C(=O)NC(=S)Nc2ccc(-c3ccc(CO)o3)cc2)cc1 | 104 | 84 | 24 | -16

The whole of this part, previewed entries included:
SMILES | GIV-Gai inh | Sa growth inh | Sa growth inh second temp | HCMV NEC inh
COc1cccc(N2CCN(c3ncnc4onc(-c5ccc(Cl)cc5)c34)CC2)c1 | 106 | 122 | 99 | /
CCc1nc2cccnc2n1-c1ccc(CC(=O)N2CCC3(CC2)OCCO3)cc1 | 105 | 103 | 88 | -31
Cc1ccc(C(=O)NC(=S)Nc2ccc(-c3ccc(CO)o3)cc2)cc1 | 104 | 84 | 24 | -16
COC(=O)c1cc2ccsc2n1CC(=O)N1CCCc2ccccc21 | 104 | 105 | 86 | /
COc1ccccc1-c1nc2ccccc2c(=O)o1 | 97 | 108 | 90 | -8
CC1CN(C(=O)NCc2ccccc2)c2cc(Cl)ccc2O1 (stereo unspecified) | 105 | 119 | 100 | 8
Cc1cc2oc(=O)cc(COC(=O)CCC3NC(=O)NC3=O)c2cc1C(C)C (stereo unspecified) | / | 90 | 81 | -11
CCCn1c(=O)c2sccc2n2c(CCC(=O)NC3CC3)nnc12 | 98 | / | / | -1
CC(C)NC(=O)Oc1noc2ccc(Cl)cc12 | 107 | 110 | 97 | 10
COc1ccc(C(=O)CC2(O)C(=O)N(CC(N)=O)c3ccccc32)c(OC)c1 (stereo unspecified) | 102 | 90 | 86 | -14
COc1ccc(-n2c(=O)c3c(c4cc(OC)ccc4n3C)n(CC(=O)N3CCCC3)c2=O)cc1 | 109 | 81 | 82 | /
Cc1cc2c(n1-c1ccc(C(=O)NCCc3ccc(Cl)cc3)cc1)CCC(C)C2 (stereo unspecified) | 101 | 96 | 90 | /
CCCSc1nc2c([nH]c3ccccc32)c(=O)n1-c1cc(C)cc(C)c1 | 103 | 119 | 91 | /
Cc1ccsc1/C=N/n1cnc2scc(-c3cccs3)c2c1=O | / | 106 | 97 | -26
CCOC(=O)C1=C(O)C(=O)N(C(C)(C)C)C1 | / | 89 | 94 | 3
CCC(=O)Nc1cccc(C(=O)OC)c1 | 106 | 99 | 93 | 4
CN(Cc1ccc2c(c1)OCO2)C1CCCCC1 | / | 115 | 93 | 8
CCc1ccccc1N(CC)C(=O)c1c(C)oc2ncnc(N3CCOCC3)c12 | 101 | 84 | 87 | /
Cc1cc(/C=C(/C#N)c2ccc(Cl)cc2)c(C)n1C(C)C | 107 | 111 | 99 | 11
COc1ccc(-c2nc3sc(-c4ccc(OC)cc4)nc3s2)cc1 | 107 | 109 | 86 | -8
COc1ccc(OC)c(NS(=O)(=O)c2ccc(N3C(=O)CCS3(=O)=O)cc2)c1 | 103 | / | / | -22
COc1ccccc1N1CCN(C(=O)Cn2ncc3c2-c2cc(C)ccc2OC3)CC1 | 101 | 92 | 83 | -12
CCC(C)NC(=O)CN1C(=O)c2cccnc2Sc2ccccc21 (stereo unspecified) | 109 | 97 | 94 | /
Cc1ccc2oc(=O)c3cc(C(=O)Nc4ccc(S(N)(=O)=O)cc4)sc3c2c1 | 98 | / | / | -24
Cc1ccc(OCCSc2nc3ccccc3n2CCC(=O)O)cc1C | 105 | 108 | 90 | -46
COc1c(Cl)cc(Cl)cc1CNCCSc1nnnn1C | 107 | 117 | 93 | 0
Cc1ccc2c(c1)CCCN2C(=O)c1ccoc1C | 106 | 108 | 105 | -1
CN(C)c1ccc(C(C(=O)NC2CCCCC2)N(Cc2ccco2)C(=O)Cc2c[nH]c3ccccc23)cc1 (stereo unspecified) | 101 | 105 | 111 | -11
CN1C(=O)S/C(=C/c2ccc(OCc3ccc(C(=O)O)o3)cc2)C1=O | 102 | 89 | 73 | /
CC1CN(c2ccc(NC(=O)c3ccco3)cc2C(=O)O)CC(C)O1 (stereo unspecified) | 100 | 97 | 97 | -16

Five entries drawn at random from those above, as already listed:
SMILES | GIV-Gai inh | Sa growth inh | Sa growth inh second temp | HCMV NEC inh
COc1c(Cl)cc(Cl)cc1CNCCSc1nnnn1C | 107 | 117 | 93 | 0
COc1ccc(OC)c(NS(=O)(=O)c2ccc(N3C(=O)CCS3(=O)=O)cc2)c1 | 103 | / | / | -22
CN(C)c1ccc(C(C(=O)NC2CCCCC2)N(Cc2ccco2)C(=O)Cc2c[nH]c3ccccc23)cc1 (stereo unspecified) | 101 | 105 | 111 | -11
Cc1ccc2oc(=O)c3cc(C(=O)Nc4ccc(S(N)(=O)=O)cc4)sc3c2c1 | 98 | / | / | -24
CC1CN(c2ccc(NC(=O)c3ccco3)cc2C(=O)O)CC(C)O1 (stereo unspecified) | 100 | 97 | 97 | -16

(listing goes on)
SMILES | GIV-Gai inh | Sa growth inh | Sa growth inh second temp | HCMV NEC inh
CCN1CCN(Cc2c(O)ccc3c(C)c(-c4ccc(OC)cc4)c(=O)oc23)CC1 | 106 | 79 | 98 | /
Cc1ccc2nc(-c3cccc(NC(=O)c4ccc(Br)o4)c3)oc2c1 | 110 | 104 | 87 | -15
Cc1cccc(OCC(N)=O)c1 | / | 88 | 91 | -6
CC1=C(C(=O)Nc2ccc(CC(=O)N3CCN(c4ccccc4F)CC3)cc2)SCCO1 | 106 | 101 | 80 | -30
Cc1ccc(CNC(=O)CCCn2nc(C)n3c(cc4sccc43)c2=O)cc1 | 98 | 94 | 83 | -10
O=C(/C=C/c1ccco1)OCC(=O)N1CCCc2ccccc21 | / | 102 | 94 | -46
NS(=O)(=O)c1ccc(Cl)cc1Sc1ccccc1C(=O)O | 98 | 99 | 84 | 2
Cc1cc(N(Cc2ccc(Cl)cc2)C(=O)c2ccc(Cl)cc2)no1 | 103 | 96 | 88 | -21
CCN(CC)CCNC(=O)Nc1ccc2c(c1)N(Cc1ccccc1)C(=O)c1ccccc1S2 | 104 | 117 | 68 | -23
Cc1ccccc1NC(=O)CSc1ccc(-c2ccccn2)nn1 | 102 | 96 | 84 | /
CC(C)c1ccc(CN(CC2CCCO2)S(=O)(=O)c2ccc(S(=O)(=O)N(C)C3CCCCC3)cc2)cc1 (stereo unspecified) | 101 | / | / | -22
Cc1ccsc1CN(C(=O)COc1ccc(Br)cc1)C1CCS(=O)(=O)C1 (stereo unspecified) | 102 | 127 | 79 | -5
NC(=O)CNC(=O)Cc1c(Cl)cccc1Cl | / | 71 | 90 | -20
CCc1nn2c(=O)cc(CN(C)c3ccc(Cl)cc3)nc2s1 | 104 | / | / | -26
CCOc1ccc(N(CC)S(=O)(=O)N2CCCC(C(=O)Nc3ccc(C(C)=O)cc3)C2)cc1 (stereo unspecified) | 108 | 119 | 97 | /
COc1ccc(N2CCN(C(=O)C3=C(C)C(=O)OC34CCCCC4)CC2)cc1 | 101 | / | / | -19
Cc1nc2c(=O)n(C)c3c(c(=O)n(C)c(=O)n3C)c2o1 | 96 | 87 | 89 | -34
COc1ccccc1CNC(=O)C1c2c(C)nn(-c3ccccc3)c2SCC(=O)N1c1cccc(F)c1 (stereo unspecified) | 104 | / | / | -34
Cc1cc(C)cc(C(=O)OCC(=O)c2c(N)n(C)c(=O)n(C)c2=O)c1 | / | 102 | 97 | -32
O=S1(=O)CC(O)C(NCc2ccco2)C1 (stereo unspecified) | / | 80 | 103 | -12
COc1ccc(-c2nc(CC(=O)NCC(c3ccco3)N(C)C)cs2)cc1 (stereo unspecified) | / | 87 | 82 | -38
O=C(N/N=C/C1CC=CCC1)c1ccccc1 (stereo unspecified) | 105 | 93 | 115 | 21
COc1ccc(S(=O)(=O)N(Cc2nc(-c3ccc(C)cc3)no2)C2CCCCC2)cc1 | 106 | 109 | 93 | -10
O=C(Cn1ccn2nc(-c3ccc4c(c3)OCO4)cc2c1=O)N1CCN(c2ccc(F)cc2)CC1 | 97 | / | / | -24
c1cn(-c2ccc(-c3ccn[nH]3)cc2)cn1 | 98 | / | / | 5
O=C(NCCN1CCN(c2ccccc2F)CC1)C1CCCN(c2nc3cccnc3s2)C1 (stereo unspecified) | 108 | / | / | -10
COc1ccc(C=Nc2cccc(C(N)=O)c2)cc1OC | 100 | 102 | 90 | -12
CCN1C(=O)/C(=C2\C=Cc3cc(C)ccc3N2CC)OC1=S | 97 | 91 | 82 | -33
Cn1c(=O)cc(SCC(=O)NCCc2ccc(Cl)cc2)c2cc(Cl)ccc21 | 110 | 109 | 93 | -10
COc1ccc(Cl)cc1NC(=O)c1nc(-c2ccc(C)cc2)n2c1CCCCC2 | 104 | / | / | -17
CC(C)(C)C(=O)CSc1nnc(-c2ccccc2)o1 | 103 | 102 | 73 | -23
CCOC(=O)c1c(C)n(-c2ccccc2)c2ccc(OC(=O)c3ccccc3C)cc12 | 103 | / | / | -5
Cc1cc(C)c(Nc2n[nH]c(=O)[nH]2)cc1C | 98 | 86 | 91 | -14
O=C(NCc1csc(-c2cccs2)n1)Nc1ccc(F)cc1F | 105 | 92 | 77 | -22
COc1nc(SC)nnc1C | 100 | 94 | 85 | -8
COCCNc1ccc(-c2nc(-c3ccco3)no2)cc1[N+](=O)[O-] | 100 | 89 | 83 | -36
CCOc1ccc(NC(=O)Cn2c(C)cc3ccccc3c2=O)cc1 | 104 | 106 | 85 | -18
Cc1ccc2c(c1)NC(SCC(=O)NCc1ccccc1)=NS2(=O)=O | 107 | 81 | 93 | -40
CC1=C(C(=O)Nc2ccccc2)C(c2ccc(F)c(Br)c2)n2ncc(C(=O)Nc3ccc(C)cc3)c2N1 (stereo unspecified) | 102 | / | / | -19
Clc1ccc(-c2nnc(NCCN3CCOCC3)c3ccccc23)cc1 | 105 | / | / | -20

Individual results from above.
Cc1nc2c(=O)n(C)c3c(c(=O)n(C)c(=O)n3C)c2o1 | HCMV NEC inh = -34
COc1ccccc1CNC(=O)C1c2c(C)nn(-c3ccccc3)c2SCC(=O)N1c1cccc(F)c1 (stereo unspecified) | GIV-Gai inh = 104
Clc1ccc(-c2nnc(NCCN3CCOCC3)c3ccccc23)cc1 | GIV-Gai inh = 105

Following part
SMILES | GIV-Gai inh | Sa growth inh | Sa growth inh second temp | HCMV NEC inh
O=C(CSc1nc2cc(Cl)ccc2o1)c1ccc(F)cc1 | / | 102 | 82 | -10
Cc1oc(-c2ccc(C(=O)NCCC(C)C)cc2)nc1CS(=O)(=O)c1ccccc1 | 108 | 117 | 93 | /
O=C(c1cccc2ccccc12)N1CCCc2ccccc21 | / | 57 | 56 | -29
Cc1ccc(/C=C/C(=O)NCC(c2ccco2)N2CCCC2)o1 (stereo unspecified) | / | 105 | 83 | -31
COc1ccc(CNC(=O)c2c(O)nc3scc(C)n3c2=O)cc1 | 103 | 103 | 101 | -7
CCCN1CC(=O)N(c2ccc(C)cc2)[C@@H]2CS(=O)(=O)C[C@@H]21 | 109 | / | / | 12
CSc1ccc(/C=C/C(=O)N2CCC(C(N)=O)CC2)cc1 | / | 97 | 90 | -47
CCCC(=O)Oc1c(Sc2ccccc2)c(C)nn1-c1ccccc1 | 93 | 58 | 47 | /
Cc1nc2nc(C(F)(F)F)[nH]c2cc1Br | 106 | 49 | 15 | -9
NC(=O)c1ccc(-n2nnnc2SCc2ccccc2)cc1 | 100 | 92 | 78 | -16
CCC(C)OC(=O)c1[nH]c2c(c1C)C(=O)CC(c1ccc(N(C)C)cc1)C2 (stereo unspecified) | 106 | 102 | 85 | -8
COc1ccc2nc(NC(=O)C(F)F)sc2c1 | / | 113 | 73 | -22
N#Cc1cccnc1N1CCCN(C(=O)Nc2ccccc2)CC1 | 101 | 96 | 91 | -17
CC(=O)Nc1ccc(NC(=O)c2ccc(CS(C)(=O)=O)cc2)cc1 | / | 107 | 101 | 22
Cc1cccc(NC(=O)CN2C(=O)C3CCCCN3c3ccc(S(=O)(=O)N4CCCCC4)cc32)c1 (stereo unspecified) | 103 | / | / | -18
CCCC1=NN2C(=N)/C(=C/c3ccc(OC(=O)c4cccs4)c(OC)c3)C(=O)N=C2S1 | 106 | 110 | 93 | -37
Cc1cc(NC(=O)c2ccc3c(c2)N(Cc2cccc(Cl)c2)C(=O)c2ccccc2S3=O)ccc1Br (stereo unspecified) | 99 | 114 | 88 | /
O=C(OCC(=O)N1CCCCC1)c1n[nH]c2ccccc12 | / | 82 | 86 | -25

An excerpt from above in order of formula weight, lowest first:
SMILES | GIV-Gai inh | Sa growth inh | Sa growth inh second temp | HCMV NEC inh
N#Cc1cccnc1N1CCCN(C(=O)Nc2ccccc2)CC1 | 101 | 96 | 91 | -17
CCCC1=NN2C(=N)/C(=C/c3ccc(OC(=O)c4cccs4)c(OC)c3)C(=O)N=C2S1 | 106 | 110 | 93 | -37
Cc1cccc(NC(=O)CN2C(=O)C3CCCCN3c3ccc(S(=O)(=O)N4CCCCC4)cc32)c1 (stereo unspecified) | 103 | / | / | -18

Screens as filed in PubChem.
